Screening data: PubChem, National Center for Advancing Translational Sciences (NCATS)
RE007 growth inh = less growth of the S. pombe RE007 Vpr strain | S. pombe RE007 Vpr strain, BacTiter-Glo ATP luminescence, 24 h; control for the full effect not named in the record | 360,000 compounds, 0.21% hits | Potency, µM (top dose mostly 92.2 µM), inactives show at the highest dose activity change, negative = less growth | AID 651644; active = well fitted falling curve with a large enough effect; inconclusive = small, poorly fitted or top-dose-only effect; inactive = no such curve, though single readings can be large or run the other way;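 note: nearly all actives have a fitted effect of over 50% in size; the assay follows cell death caused by Vpr and the record does not say whether a fall means rescue or toxicity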
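Fission yeast RE007 carrying one integrated HIV-1 vpr copy, seeded at OD 0.01 in PMG+AL medium with 23 nL pinned compound. Grown 24 h at 30 degrees; viability read by BacTiter-Glo luminescence after 5 min.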
2A StopGo = FMDV 2A StopGo reporter, luciferase signal | human cells with a luciferase reporter of 2A StopGo recoding; control for the full effect not named in the record | Potency, µM (doses to about 57.9 µM), inactives show at the highest dose signal change, negative = less light | 410,000 compounds, 1.2% hits | AID 1159524; active = well fitted falling curve with a large enough effect; inconclusive = small, poorly fitted or top-dose-only effect; inactive = no such curve, though single readings can be large or run the other way; tested in HEK293T cells; note: nearly all actives have a fitted effect of over 45% in size; luciferase light after 4 h
* hit, by the source's call; ? = inconclusive; [ ] = another dose, or the depositor's remark. % is set by controls: 0 for no effect and ±100 for the full control effect; potency is the fitted concentration of half-maximal effect. This is a subset; rates above refer to the full screens.

canonical_smiles	RE007 growth inh	2A StopGo
CC(=O)c1ccc(NS(=O)(=O)c2cccc3cccnc23)cc1	4%	47%[activator]
CCc1nc2ccc(C(=O)NCCc3c[nH]c4ccccc34)cn2c1N(C)Cc1ccc(N(C)C)cc1	-5%	?
CCOC(=O)C1=C(COC(=O)c2ccc(OC)c(S(=O)(=O)N3CCOCC3)c2)NC(=O)NC1C (stereo not given)	9%	-8%
C[C@@H]1CN([C@H](C)CO)C(=O)CCCn2nncc2CO[C@H]1CN(C)CC1CC1	-8%	-7%
Cn1cccc1CN1CCC[C@]2(N[C@H](c3ccccc3)[C@@H]3C(=O)N(Cc4ccccc4)C(=O)[C@@H]32)C1=O	-2%	-29%
Cc1ccc(OC(=O)N(C)C[C@H]2OCc3cnnn3CCCC(=O)N([C@H](C)CO)C[C@@H]2C)cc1	5%	0%
CC(C)(C)Cc1c(-c2ccco2)nc2ccc(Cl)cn12	-20%	18%
C#CCN1CCc2onc(-c3ccc(Br)cc3)c2C1=O	-26%	9%
O=C1[C@H]2[C@H](C=CC[C@H]2C(=O)N2CCN(c3ccccc3)CC2)CCN1Cc1ccc(Cl)c(Cl)c1	4%	?
CNc1cncc(-c2ccc(F)cc2F)n1	-24%	29%
CCc1ccc(CCC(=O)N2CCN(S(=O)(=O)c3ccc(Br)cc3)CC2)cc1	18%	0%
O=C(NCCNC(=O)c1cccnc1)c1cccnc1	-5%	-13%
Cc1ccc(-c2cnc3c(Nc4cccc(OC(F)(F)C(F)F)c4)nccn23)cc1	7%	?
COC(=O)[C@@]12C[C@@H](CC(=O)NCc3cccs3)C(=O)N(Cc3ccc4c(c3)OCO4)C1=CCC(C)(C)C2	0%	9%
CN(C)c1ccc(CN2CCC(C(=O)NC(c3ccc(Cl)cc3)c3cnccn3)CC2)cc1 (stereo not given)	-18%	0%
COc1ccc(CN2C[C@H]3CON(C)[C@H]3C[C@H]2c2ccc(-c3ccccc3)cc2)cc1	?	-8%
Nc1sccc1C(=O)NCCN1CCOCC1	-22%	-16%
COc1ccc(OC(=O)N(C)C[C@@H]2OCc3cn(nn3)CCCC(=O)N([C@@H](C)CO)C[C@H]2C)cc1	-26%	0%
N#Cc1cnn(-c2ccc([N+](=O)[O-])cc2[N+](=O)[O-])c1N	1%	-14%
Nc1nc2c(ncn2[C@@H]2O[C@H](CNS(=O)(=O)c3cccnc3)[C@@H](O)[C@H]2O)c(=O)[nH]1	0%	-18%
C=CCOc1cccc(C2C(C(=O)c3ccc(C)o3)=C(O)C(=O)N2CCN2CCOCC2)c1 (stereo not given)	14%	14%
O=C(CSC1=NCCS1)N1N=C(c2cccs2)CC1c1ccc(F)cc1 (stereo not given)	20%	?
CCc1ccc(C(O)c2ncc(-c3ccccc3Cl)[nH]2)cc1 (stereo not given)	-8%	63%[activator]
Nc1nc(N)c(N=O)c(Nc2cccc(Cl)c2)n1	-9%	-24%
C[C@H](CO)N1C[C@H](C)[C@@H](CN(C)Cc2ccncc2)OCCCC[C@H](C)Oc2ccc(NC(=O)CCCN(C)C)cc2C1=O	-27%	-4%
Cc1cc(O)ccc1-c1cc(C(=O)NCc2cc(C(F)(F)F)cc(C(F)(F)F)c2)[nH]n1	23%	-21%
COC(=O)[C@H]1C[C@@]2(O)CN(S(=O)(=O)c3ccc(C)cc3)C[C@@]2(OC(=O)NCc2ccccc2)C[C@H]1C(=O)OC	15%	?
CCOC(=O)[C@]12CCCC=C1N(Cc1cccc3ccccc13)C(=O)[C@H](CC(=O)NCCCOC)C2	-2%	-16%
CCCCN(C)c1c(C)nc2ccc(C(=O)NCCOc3ccc(OC)cc3)cn12	-4%	?
CCOC(=O)C1(C)NC(c2ccc(OC)c(OC)c2)C2C(=O)N(c3cccc(C(C)=O)c3)C(=O)C21 (stereo not given)	1%	-14%
CCOC(=O)c1ccc(NC(=O)c2ncn3c2C(=O)N[C@H](C)C3)cc1	-2%	0%
CCCCCCCCNS(=O)(=O)CCNCc1ccc(OC)cc1	-3%	?
NC(=S)c1ccc(OCCCc2ccccc2)cc1	19%	42%[activator]
COc1cccc(-c2c(-c3ccccc3OC)ncn2Cc2cccc(-c3ccccc3)c2)c1	-19%	-10%
CCOc1ccc(Cl)cc1-c1cc(C(=O)Nc2ccc(OC)cc2OC)[nH]n1	-4%	-13%
CC(=O)C[C@H]1c2cc(F)ccc2S(=O)(=O)N1c1ccc(N(C)C)cc1	3%	48%[activator]
COC(=O)[C@@]12C[C@@H](CC(=O)NCc3ccc(C)o3)C(=O)N(Cc3ccc4c(c3)OCO4)C1=CCC(C)(C)C2	-2%	4%
Cc1ccc(Cc2c(-c3ccc(C#N)cc3)nc3c(C)cc(Br)cn23)cc1	4%	-25%
O=C(OCc1ccccc1)N1CCC2CC1c1cc(N3CCOCC3)ccc12 (stereo not given)	5%	3%
S=C1SCCCN1Cc1ccc(Cl)cc1	-8%	-19%
CC1CS(=O)(=O)CCN1N=Cc1ccc([N+](=O)[O-])o1 (stereo not given)	-15%[18.4 µM]	-8%
COc1ccccc1Cc1c(-c2ccc(F)cc2)nc2ccc(Br)cn12	-7%	26%
CN1CCN(C(=O)c2cccc(-c3ccc4nncn4c3)c2)CC1	6%[18.4 µM]	-9%
CCOC1(OCC)OC(c2ccccc2)=C(C#N)C(C=Cc2ccccc2)C1(OCC)OCC (stereo not given)	6%	-20%
C[C@@H]1COc2cc(N3CCC[C@@H]3CO)ccc2S(=O)(=O)N1	9%	-8%
CCCCc1ccc(S(=O)(=O)NC(=O)C2(C)CCN2C(=O)CCc2cccs2)cc1 (stereo not given)	1%	-10%
C(=Cc1nc2ccccc2o1)c1ccc2c(c1)OCO2	-11%	-48%
COc1ccc(-c2nc3ccccc3n(CC(C)C)c2=O)cc1	-28%	-10%
CCC(C)C(CO)NCCCn1ccc(NC(=O)OCc2ccccc2)nc1=O (stereo not given)	-27%	-24%
Cc1ccc(S(=O)(=O)Nc2nc(CN3CCOCC3)nc3sc(C(=O)O)c(C)c23)cc1	-2%	-23%

(continued)
canonical_smiles	RE007 growth inh	2A StopGo
COc1cccc(C(NC(C)=O)c2nc(-c3cccc(O)c3)cs2)c1 (stereo not given)	-14%	25%
COc1ccccc1N1CCN(C(=O)C(=O)c2cccc([N+](=O)[O-])c2)CC1	9%	-12%
Cc1ccccc1NC(=O)Cc1nc(COC(=O)Cc2cccc(C(F)(F)F)c2)cs1	-7%	-23%
COc1ccccc1NC(=O)Nc1nc(C(N)C(C)C)cs1 (stereo not given)	-6%[18.4 µM]	-16%
CCOC(=O)C1=CCN(S(=O)(=O)c2ccccc2Br)C1c1ccccc1 (stereo not given)	-5%	-23%
Cc1cc(NC(=O)Nc2cccc(Cl)c2)no1	7%	19%
CC(C)(C)OC(=O)N(Cc1ccccc1)Cc1ccc(OCc2cccc(NC(=O)c3ccccc3)c2)cc1	6%	?
Cc1ccc(CNC(=O)CN(C)S(=O)(=O)c2ccc(F)cc2)cc1	11%	20%
CC1(C(=O)Nc2ccc3c(c2)OCO3)CCN1C(=O)Cc1cccc2ccccc12 (stereo not given)	-1%	-20%
NC(c1ccc(F)c(F)c1)c1nc(-c2cncnc2)cs1 (stereo not given)	5%	?
CC(C)(Cc1nc2ccccc2[nH]1)c1nc2ccccc2[nH]1	1%	4%
CC(c1nc2ccccc2[nH]1)n1c(=O)c(-c2cccnc2)nc2ccccc21 (stereo not given)	-23%	-21%
O=c1c(-c2cccs2)nc2ccccc2n1C(c1ccccn1)c1nc2ccccc2[nH]1 (stereo not given)	-9%	37%[activator]
COc1ccc(C(=O)N2CCCCC2c2cc(C(=O)NCc3ccc(Cl)c(Cl)c3)no2)cc1 (stereo not given)	-3%	-24%
CCCCN1CCCCC1(C)C(=O)NCc1ccc2c(c1)OCO2 (stereo not given)	-9%	-14%
COc1ccc(-c2ccc3c(c2)CN(c2cccc(Cl)c2)Cc2cnnn2-3)cc1	0%	-17%
O=C(NCc1ccc(F)cc1)C1CCN(S(=O)(=O)c2ccc(N3CCCC3=O)cc2)CC1	-6%	0%
COc1cc(-c2cnc3c(NC=O)cc(-c4cccnc4)cn23)cc(OC)c1OC	-4%	20%
CCOC(=O)Cn1ccc2cc(S(=O)(=O)N3CCCC3)ccc21	-3%	-23%
O=C(OCc1cn([C@H]2CN(C(=O)C3CCCCC3)[C@@H](c3ccccc3)C[C@@H]2O)nn1)c1ccccc1	14%	-9%
O=C(NCC1CC1)c1ccc2c3n(nc2c1)-c1ccc(Cl)cc1CO3	-8%	5%
CC(C)(C)n1nnnc1C(c1cc2ccccc2o1)N(Cc1ccccc1)Cc1ccccc1 (stereo not given)	6%	?
CC(=O)c1cccc(-c2ccnc3c2CC(C(=O)NCCC(F)(F)F)O3)c1 (stereo not given)	-12%[18.4 µM]	-13%
COc1ccc(C=CC(=O)c2ccc3cc(OC)c(OC)cc3c2)cc1OC	-11%	?
Cn1c(NCCN2CCCC2)nc2cc(-c3cccc(C(F)(F)F)c3)sc2c1=O	-10%	2%
O=C1C[C@@H](c2ccccc2)Oc2cc(O)cc(O)c21	-9%	45%[activator]
O=C(NCC(=O)N1CCC(Cc2ccccc2)CC1)c1ccccc1F	7%	7%
CC1(C)CC(=O)C2=C(C1)OC1=C(C(=O)CC(C)(C)C1)C2c1cccc([N+](=O)[O-])c1	-4%	-20%
COc1ccccc1C(=O)N1CCN(C(=O)[C@H]2O[C@@H](n3ccc(=O)[nH]c3=O)[C@H](O)[C@@H]2O)CC1	33%	-7%
COc1ccc(Cc2c(-c3ccc(F)cc3)nc3cc(C)c(Br)c(C)n23)c(C)c1	-4%	0%

Reformatted with values under each structure: 4 of the compounds above
Results follow in this order: RE007 growth inh, 2A StopGo
CC(C)(C)n1nnnc1C(c1cc2ccccc2o1)N(Cc1ccccc1)Cc1ccccc1 (stereo not given)
 : 6%, ?
CC(=O)c1cccc(-c2ccnc3c2CC(C(=O)NCCC(F)(F)F)O3)c1 (stereo not given)
 : -12%[18.4 µM], -13%
COc1ccc(C=CC(=O)c2ccc3cc(OC)c(OC)cc3c2)cc1OC
 : -11%, ?
Cn1c(NCCN2CCCC2)nc2cc(-c3cccc(C(F)(F)F)c3)sc2c1=O
 : -10%, 2%

(continued)
canonical_smiles	RE007 growth inh	2A StopGo
O=C(c1ccc([N+](=O)[O-])cc1Cl)N1CCN(Cc2ccccc2)CC1	-21%	?
CC(C)(C)S(=O)(=O)N1Cc2ccc(CO)cc2[C@@H]1CCO	3%	-23%
COC(=O)[C@]12CCCCC=C1N(Cc1ccc3c(c1)OCO3)C(=O)[C@H](CC(=O)N1CCCCC1)C2	-2%	-6%
CCOC1=C2[C@@H](CN(S(=O)(=O)c3ccc(C)cc3)[C@H]2c2ccccc2Cl)[C@H]2C(=O)N(Cc3ccccc3)C(=O)[C@H]2C1	10%	29%
CN(C(=O)c1ccc(NC(=O)Cc2ccc(NC(=O)C3CCCN(C(=O)CCc4ccccc4)C3)cc2)cc1)C1CCCC1 (stereo not given)	6%	?
COc1ccc(/C=C2/SC(=S)N(CCC(=O)Nc3cccnc3)C2=O)cc1OC	-4%	-2%
S=C1SCN(Cc2ccccc2)CN1Cc1ccco1	-19%	-21%
O=C(NCC[C@@H]1CC[C@@H](NS(=O)(=O)Cc2ccccc2)[C@@H](CO)O1)C1CC1	-5%	-14%
Cc1cccc(C)c1NC(=O)c1ccc2sc([C@H]3C[C@H](O)[C@@H](CO)O3)nc2c1	23%	-6%
CCNc1ccc(S(=O)(=O)N2CCOCC2)cc1NCC(=O)Nc1cccc(Br)c1	4%	?
CCOC1=C2[C@@H](CN(S(=O)(=O)c3ccc(C)cc3)[C@H]2c2ccccc2Cl)[C@H]2C(=O)NC(=O)[C@H]2C1	10%	56%[activator]
O=C(Cc1cccc(NC(=O)C2CCN(C(=O)C3CCC3)CC2)c1)Nc1cccc(C(=O)N2CCCCC2)c1	-17%	-11%
Cc1c(C(=O)NCc2ccc(C#N)cc2)sc(=O)n1Cc1ccc(C(=O)N(C)C)cc1	1%[18.4 µM]	-25%
C[C@@H]1CN([C@@H](C)CO)C(=O)CCCn2nncc2CO[C@H]1CN(C)S(=O)(=O)c1ccccc1	-3%	-2%
COCCNc1ncnc2c1ncn2[C@H]1CN(Cc2ccc(-c3ccccc3)cc2)C[C@@H](CO)O1	1%	?
CCNC(=O)C1(C)CCN(C(=O)c2ccc3snnc3c2)C1 (stereo not given)	0%[18.4 µM]	-4%
COC(=O)[C@]12CCCCC=C1N(Cc1ccco1)C(=O)[C@H](CC(=O)NCc1cccc(C(F)(F)F)c1)C2	17%	-15%
CC(C)(C)c1ccccc1NC(=O)Nc1nc(C(N)Cc2ccc(F)cc2)cs1 (stereo not given)	-2%[18.4 µM]	?
